Vaccinia Venus – inhibitors of vaccinia virus (Venus reporter); Vaccinia virus Venus reporter expression, fluorescence; AID 720580; hit rate 0.46% among 330,000; Potency, µM (titrated, usually from 36.5 µM), for the others: top-dose activity change, negative = inhibition, most hits filed as inhibitors; active means well fitted inhibition curve with a large enough effect; inconclusive means small, poorly fitted or top-dose-only effect; inactive means no such curve, though single readings can be large or run the other way; tested in A549 cells; further: nearly all actives have a fitted effect of over 30% in size; inactives centre near -10
Vaccinia mCherry – vaccinia inhibition (mCherry reporter). Vaccinia virus mCherry reporter infection, fluorescence; about a quarter of the inactives have no number. Potency, µM (titrated, usually from 36.5 µM), for inactives: top-dose activity change, negative = inhibition, most hits filed as inhibitors. hit rate 0.63% among 310,000. AID 720579; active = well fitted inhibition curve with a large enough effect; inconclusive = small, poorly fitted or top-dose-only effect; inactive = no such curve, though single readings can be large or run the other way; tested in A549 cells; further: nearly all actives have a fitted effect of over 35% in size; inactives centre near -10
* marks the source's active call; other numbers are inactive results; i = inactive; u = inconclusive; x = not tested or not shown; & = joins results of further samples; [ ] = another dose, or the depositor's remark. On the % scale 0 is the no-effect control and ±100 the full control effect; potency means the concentration at half of the fitted maximal effect. Rows are unselected, and some 0.82% of all compounds hit somewhere here.

SMILES | Vaccinia Venus | Vaccinia mCherry
O=C(NC(=S)N1CCc2ccccc21)c1ccco1 | 5% | -1%
O=C(COC(=O)COc1ccc(Cl)cc1)NCCCc1ccccc1 | -5% | -20%
COc1ccc(CNC(=O)C2CC(c3cc(C(F)(F)F)cc(C(F)(F)F)c3)=NO2)cc1 (centres undefined) | -18% | -20%
COc1ccc(OCc2nnc(SCC(=O)N3CCCC3)o2)cc1 | 0% | -18%
O=C(NNc1c2ccccc2nc2ccccc12)c1ccccc1O | -29% | u
N#C/C(=C\c1ccc(N2CCOCC2)o1)C(=O)Nc1ccc(O)cc1 | 19% | u
CCCN1CCN(C(=O)CCS(=O)(=O)c2cc3c(cc2Cl)NC(=O)CO3)CC1 | -1% | -13%
Cc1nn(-c2ncccn2)c2c1C(=O)CC(C)(C)C2Br (centres undefined) | -11% | -15%
COc1ccc2sc(/C=C/c3ccccc3O)[n+](C)c2c1 | 72%[activator] | -9%
Cc1ccc(OCCNc2ccc(S(=O)(=O)N3CCCC3)cn2)cc1 | -3% | -16%
CCCOc1ccc(N2C(=O)CC(N3CCN(CCN=CC4=C(O)CC(C)(C)CC4=O)CC3)C2=O)cc1 (centres undefined) | -12% | -4%
Cc1cc(C)n(/C(=C\N(C)C)C(=O)c2cccc([N+](=O)[O-])c2)n1 | -8% | i
COC(=O)CN(c1ccc(OC)c(OC)c1)S(C)(=O)=O | -3% | -4%
O=c1c2cc3c(nc2ncn1Cc1ccccc1F)CCCC3 | 8% | -9%
COc1ccc2c(c1)CCc1c-2n[nH]c1C(=O)O | -6% | x
Cc1ccc(C(=O)N/C(=C\c2cccs2)c2nc3ccccc3[nH]2)cc1 | -10% | i
O=C(N/N=C/c1cccnc1)c1cccc(Cl)c1 | -18% | -14%
Cn1cc(S(=O)(=O)N2CCCCC2)cc1C(=O)N1CCN(c2ccc(F)cc2)CC1 | -10% | -10%
COC(=O)C1=C(c2cc3ccccc3s2)C[C@@H]2CC[C@H]1N2C(=O)NCCCOC(C)C | -16% | i
CCOC(=O)N1CCN(C(=O)C2CCCN(c3ncnc4c3sc3cccc(F)c34)C2)CC1 (centres undefined) | 12% | -10%
COc1ccccc1Nc1nc2ccc(C)cc2cc1C#N | -1% | -11%
CSc1nsc(SC)c1NC(=O)Nc1ccccc1C | -4% | 4%
Cn1c(CCNC(=O)C2CC23CCN(C(=O)C2=CCCC2)CC3)nc2ccccc21 (centres undefined) | 0% | -5%
Cc1nc(-c2ccccc2)sc1C(N)=O | -21% | -2%
CCOC(=O)c1sc2nc(-c3cccnc3)ccc2c1N | u | u
COc1ccc(NC(=O)c2sc3nc4n(c(=O)c3c2C)CCC4)cc1Cl | -10% | -11%
Cn1cccc1Cc1nnc(SCC(=O)N2CCOCC2)n1-c1ccc(F)cc1 | 5% | -1%
Cc1ccc(NS(=O)(=O)c2cc(C(=O)N3CCc4ccccc4C3)ccc2Cl)cc1 | -11% | -9%
Fc1ccc(OCCCCN2CCOCC2)cc1 | -7% | -12%
COc1ccc(/C=N/NC(=O)CCN2CCN(c3ccccc3)CC2)c(OC)c1OC | -20% | -29%
COc1ccc2c(c1)/C(=N/OC(=O)c1cccs1)CCC2 | 4% | i
O=C(Nc1ccccc1C(=O)NCc1ccco1)c1ccccc1 | -3% | x
CCCCOC(=O)c1ccc(NC(=O)c2cc(Cl)c(Cl)cc2C(=O)O)cc1 | -9% | -20%
Cc1ccccc1N=Cc1cccc(O)c1O | -20% | -13%
CC(C(=O)NC1CCCC1)N1CCN(S(=O)(=O)c2ccccc2Cl)CC1 (centres undefined) | 13% | 8%
COc1ccc(Cl)cc1N1C(=NC(=O)C2CCCO2)SC2CS(=O)(=O)CC21 (centres undefined) | -8% | -18%

A different layout for part of the listing above:
SMILES: COc1ccc(/C=N/NC(=O)CCN2CCN(c3ccccc3)CC2)c(OC)c1OC
  Vaccinia Venus: -20%
  Vaccinia mCherry: -29%
SMILES: COc1ccc2c(c1)/C(=N/OC(=O)c1cccs1)CCC2
  Vaccinia Venus: 4%
  Vaccinia mCherry: i
SMILES: O=C(Nc1ccccc1C(=O)NCc1ccco1)c1ccccc1
  Vaccinia Venus: -3%
  Vaccinia mCherry: x
SMILES: CCCCOC(=O)c1ccc(NC(=O)c2cc(Cl)c(Cl)cc2C(=O)O)cc1
  Vaccinia Venus: -9%
  Vaccinia mCherry: -20%

The results go on:
SMILES | Vaccinia Venus | Vaccinia mCherry
O=C(Nc1ccccc1F)C1CCN(C(=O)NCc2ccccc2)CC1 | -13% | -8%
Cc1ccc(Cc2nc3ccccc3nc2SCC(=O)N2CCN(c3ccccc3)CC2)cc1 | -8% | -13%
C=CCc1cccc2cc(C(=O)OCC)c(=O)oc12 | -7% | -12%
COc1ccc(N2CCN(C(=O)c3cc(N4C(=O)C5C6CCC(C6)C5C4=O)ccc3Cl)CC2)cc1 (centres undefined) | -13% | -8%
CC1(c2nnc(-c3ccc(Cl)cc3)o2)CC(c2cccc(Cl)c2)=NO1 (centres undefined) | 1% | 9%
CCc1ccc(NC(=O)COC(=O)CCc2nc3cc(S(=O)(=O)N(CC)CC)ccc3n2C)cc1 | -3% | -16%
CCc1nc2ccc(C(=O)N(C)CC(=O)Nc3ccccc3C(F)(F)F)cc2nc1CC | -5% | -18%
C[C@H](CO)N1C[C@H](C)[C@@H](CN(C)C(=O)Nc2ccc(C(F)(F)F)cc2)Oc2c(NC(=O)Nc3ccccc3)cccc2C1=O | u | i
Cn1ccnc1SCC(=O)c1ccc2ccccc2c1 | -5% | -4%
COc1ccccc1CNC(=O)COC(=O)CNS(=O)(=O)c1ccc(C)cc1 | -2% | i
COc1ccc(C(c2nnnn2Cc2ccccc2)N2CCN(c3nc4ccccc4s3)CC2)cc1 (centres undefined) | -23% | x
CC1=C(C(=O)OCCOc2ccccc2)C(c2ccsc2)NC(=O)N1C (centres undefined) | -11% | i
Cc1ccc(SCC(=O)OCC(=O)N(CC(C)C)C2CCS(=O)(=O)C2)cc1C (centres undefined) | -6% | i
COC(=O)c1ccc2c(c1)S(=O)(=O)NC2C (centres undefined) | -5% | 11%
OC(COCc1ccc2c(c1)OCO2)CN1CCN(Cc2ccccc2)CC1 (centres undefined) | -15% | x
CC(=O)C1(C)N(O)C(C)(C)C(c2cccs2)=[N+]1[O-] (centres undefined) | -1% | -6%
Cn1c(=O)c(Oc2cc(Cl)cc(Cl)c2)nc2ccccc21 | 0% | 0%
O=C(NCCc1cccs1)Nc1nnc([C@H]2C[C@H](O)[C@@H](CO)O2)s1 | 4% | 14%
CCC1(CC)Cc2ccccc2C(Nc2c(C)n(C)n(-c3ccccc3)c2=O)=N1 | -4% | x
Cc1nc2ccccc2c(=O)n1-c1ccc(Br)cc1[N+](=O)[O-] | 2% | -17%
COC(=O)c1ccc(CN2CCC3(CCC(CNC(=O)c4ccccc4)O3)CC2)cc1 (centres undefined) | 2% | -12%
COc1cc2c(cc1OC)C(c1oc(-c3ccc(-c4cc(Cl)ccc4Cl)o3)cc1C)=NCC2 | -14% | -14%
CCn1c2ccccc2c2cc(/C(C)=N/O)ccc21 | -10% | -25%
O=C(CCCCn1c(=O)c2ccccc2n(Cc2ccc(F)cc2Cl)c1=O)NCCc1ccc(Cl)cc1 | -18% | -6%
CC(C)(C)c1ccc(O)c(/C=N\O)c1 | u | -9%
COc1ccc(C(=O)Nc2ccc3ncccc3c2)cc1 | -10% | i
CC1=C(C(=O)N(C)C)CC(CC(=O)NCCN2CCOCC2)C(=O)N1CCCN1CCCC1=O (centres undefined) | -1% | i
NS(=O)(=O)c1cccc(C(=O)N2CCCc3ccccc32)c1 | -18% | -1%
O=c1cc(CO)occ1OCc1c(F)cccc1Cl | -9% | -5%
C=CCCCCCCCCCCCC(O)CC(O)COC(C)=O (centres undefined) | -6% | -1%
CC1=C/C(=N\S(=O)(=O)c2ccccc2)C(C(C)C)=CC1=O | -7% | -16%
CC1CCCC(C)N1C(=O)/C=C/c1ccc(S(=O)(=O)N2CCOCC2)cc1 (centres undefined) | -4% | -12%
CCOc1ccc2[nH]c(=O)c(CN(CC3COCCO3)C(=O)C3CC3)cc2c1 (centres undefined) | 6% | 2%
O=C(NCc1nc2ccccc2[nH]1)c1cccc(S(=O)(=O)N2CCCC2)c1 | -11% | -22%
Cc1ccccc1/C=C/C12NC(=O)CN1c1ccccc1C2(C)C (centres undefined) | -27% | -3%
O=C(NCc1cc(Cl)cc(Cl)c1)c1ccc2nc([C@H]3C[C@H](O)[C@@H](CO)O3)[nH]c2c1 | -5% | 47%[activator]
COc1ccc([N+](=O)[O-])cc1NC(=O)C(C)c1ccccc1 (centres undefined) | -24% | -5%
CC(=O)N1CCc2cc(CNC(=O)Cc3ccc(F)cc3)ccc21 | -5%[7.34 µM] | -7%[7.34 µM]
Cc1ccccc1CNC(=O)c1ccc(CS(=O)Cc2ccc(Cl)cc2)o1 (centres undefined) | -9% | -12%
CC(C)(C)c1ccc(CC(=O)N2CCC2(C)C(=O)NS(=O)(=O)c2cccs2)cc1 (centres undefined) | -6% | i
Cc1ccc(OCC(=O)N2CCCCCCC2)cc1 | -11% | i
O=C(Nc1nonc1-c1ccc(Cl)cc1)c1ccccc1F | -18% | -16%
CC1CCCN(C(=O)COC(=O)C2=COCCO2)C1 (centres undefined) | -4% | i
COc1cc(C(=O)N2CCN(C(=O)c3ccco3)CC2)cc(OC)c1OC | -7% | x
COc1ccc(NC(=O)CN2C(=O)c3cccc4cccc2c34)c(OC)c1 | 4% | -13%
COCCNC(=S)N(CCCO)Cc1cc2cc3c(cc2[nH]c1=O)OCO3 | -9% | i
CCOC(=O)C1Nc2c(cc(C(F)(F)F)cc2[N+](=O)[O-])C2c3ccccc3CC12 (centres undefined) | -18% | -9%
Cc1ccc(Cc2nnc(SCC(=O)Nc3ccccc3Cl)[nH]c2=O)cc1 | -9% | -11%

5 consecutive records out of the list so far, quoted:
SMILES | Vaccinia Venus | Vaccinia mCherry
COc1ccc([N+](=O)[O-])cc1NC(=O)C(C)c1ccccc1 (centres undefined) | -24% | -5%
CC(=O)N1CCc2cc(CNC(=O)Cc3ccc(F)cc3)ccc21 | -5%[7.34 µM] | -7%[7.34 µM]
Cc1ccccc1CNC(=O)c1ccc(CS(=O)Cc2ccc(Cl)cc2)o1 (centres undefined) | -9% | -12%
CC(C)(C)c1ccc(CC(=O)N2CCC2(C)C(=O)NS(=O)(=O)c2cccs2)cc1 (centres undefined) | -6% | i
Cc1ccc(OCC(=O)N2CCCCCCC2)cc1 | -11% | i

Next entries.
SMILES | Vaccinia Venus | Vaccinia mCherry
CCCCC[C@@H](C)N1C[C@H](COCc2ccccc2)Oc2cc(N3CC[C@@H](N(C)C)C3)ccc2S1(=O)=O | -7% | -13%
CCOC(=O)c1cccc(NC(=O)c2ccc(F)cc2F)c1 | -5% | i
COc1cccc(NC(=O)CSc2nc3scc(C)c3c(=O)[nH]2)c1 | -4% | -11%
COc1ccc(NC(=S)NCCCN2CCCC2=O)c(OC)c1 | -7% | -17%
CCOC(=O)Cn1cc(/C=N/NC(=O)c2cc3ccccc3o2)c2ccccc21 | -12% | -12%
CCCCNc1cnn(-c2ccccc2)c(=O)c1Cl | -10% | i
CC(C)(C)NC(=O)C1CC2CCCCC2CN1 (centres undefined) | -18% | -6%
O=[N+]([O-])c1cccnc1Nc1ccc(Cl)cc1 | -12% | -16%
O=C(Nc1ccc(S(=O)(=O)N2CCCCC2)cc1)c1cnccn1 | -8% | -17%
CC(=O)Nc1cccc(/C(C)=N/NC(=O)c2ccc3c(c2)OCO3)c1 | 1% | 2%
CN(C)c1ccc(/C=N/N=C2/SC(CC(=O)O)C(=O)N2c2ccc(O)cc2)cc1 (centres undefined) | 10% | -2%
Cc1cc(-c2nn(-c3ccccc3F)cc2CN2CCCC(CO)C2)c(C)s1 (centres undefined) | -17% | u
O=C(CN1C(=O)CSC1=O)N1CCc2ccccc2C1 | -11% | -11%
COc1ccc(NS(=O)(=O)c2cccc(C(=O)NCc3cccnc3)c2)cc1 | -7% | -15%
CCCCOC(=O)c1ccc(NS(=O)(=O)c2cc(-c3nnnn3CC)ccc2OC)cc1 | -6% | x
O=C(CSc1nc2ccccc2c(=O)[nH]1)Nc1ccc(N2CCOCC2)c(Cl)c1 | -6% | 9%
CCC(=O)Nc1cccc(-n2nnnc2SCC(=O)N(C(C)C)C(C)C)c1 | -16% | -25%
CC(C)(C)NCC(O)COc1cccc2[nH]c(=O)[nH]c12 (centres undefined) | -12%&-9% | -15%
CCCCc1n[nH]c2c1/C(=N/OCC)CC(C)(C)C2 | -9% | -1%
COc1ccc(C2/C(=C(/O)c3ccc(S(=O)(=O)N4CCOCC4)cc3)C(=O)C(=O)N2CCN2CCOCC2)cc1 (centres undefined) | 15% | -13%
C/C(=N\NC(=O)CN1CCN(Cc2ccc(C)cc2)CC1)c1ccncc1 | -15% | i
Cc1nc(SCc2ccc(F)cc2)n[nH]1 | -3% | 1%
COC(=O)c1cccc(C(=O)NCc2nc(-c3cccc(NC(=O)c4ccoc4C)c3)oc2C)c1 | -23% | -26%
COc1ccc(/C=C/C(=O)NCC2Cc3cccc(-c4nc(C)cnc4C)c3O2)cc1OC (centres undefined) | -9% | i
COc1cccc(CNC(=O)COC(=O)c2ccc(-c3ccc(O)cc3)cc2)c1 | u | -6%
O=C(COc1ccc([N+](=O)[O-])cc1)NCCc1nc2ccccc2[nH]1 | 4% | i
COc1ccc(N2CCN(CCN3C(=O)c4ccccc4C3=O)CC2)cc1 | -2% | 14%
C=C(C)Cn1cnc2cc(C)c(C)cc21 | -6% | i
